Assay outcomes from PubChem.
NPYLR7 ag – activates Aedes aegypti NPYLR7 receptor. activation, % at 10 µM. 0.15% of 270,000 active. HEK293T NPYLR7/Galpha15, GCaMP6s calcium fluorescence; in the data active = activation above about 40%;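 note: 0% = vehicle and 100% = reference agonist at the receptor; some compounds past the cut are filed as inactive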
NPYLR7 ag max-min – also measured in NPYLR7 ag; calls as there; activation, %; measured here: Max-Min RFU normalised activation; some inactives read as strong as hits;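 span of the calcium signal over five minutes; 0% = vehicle and 100% = native peptide agonist; compound fluorescence can raise it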
* hit, by the source's call; & = joins results of further samples.

Value order – NPYLR7 ag, NPYLR7 ag max-min
O=C(Nc1ccc(F)cc1)C(C1CCCC1)N1CCN(C(=O)CCc2ccccc2)CC1 (configuration not stated)
→ -5, -7
CCCC(C(=O)O)N1C(=O)/C(=C/c2ccccc2OC)SC1=S (configuration not stated)
→ 6, 2
CC(NC(=O)c1cc(=O)c(OCc2ccc(F)cc2)co1)c1ccccc1 (configuration not stated)
→ -3, -3
CN1CCN(C2OC(=O)c3ccccc32)CC1 (configuration not stated)
→ 0, 1
O=c1c(-c2ccc(I)cc2)[n+]([O-])c2ccccc2n1O
→ -2, -4
Cc1cc(C)nc(NC(=O)/C=C/c2ccc(Cl)c(Cl)c2)c1
→ 2, 10
O=[N+]([O-])c1ccc(N=P(c2nc3ccccc3o2)(N2CCOCC2)N2CCOCC2)cc1
→ -5, -9
CC1(C)ON=C(c2ccc(F)cc2)N(Cc2ccc(S(C)(=O)=O)cc2)C1=O
→ 4, 3
Cc1ccc(C(=O)OC(C)C(C)(C)C#N)cc1Cl (configuration not stated)
→ 2, 2
Cc1cc(C(=O)N2CCSCC2)ccc1NC(=O)c1cccn1C
→ 2&2, 0&3
Cc1ccccc1-n1c(=O)c2c3c(sc2n2c(SCC(N)=O)nnc12)CCCC3
→ 3, -1
COc1ccc(N2CCN(C(=O)C3CCCCC3C(=O)NCCc3cccc(F)c3)CC2)cc1 (configuration not stated)
→ -11, -17
Cc1ccc(S(=O)(=O)Nc2ccc(Cl)c(S(=O)(=O)N3CCOCC3)c2)cc1
→ 4, 3
O=C(NCCn1ncccc1=O)c1ccccc1Cl
→ 2, 1
COC1(c2ccccc2)CCN(C(=O)c2ccccc2C2CCNC2)CC1 (configuration not stated)
→ -6, -14
Cc1ccc2nc(C)c(NC(=O)Cc3ccc(-c4ccccc4)cc3)c(=O)n2c1
→ 4, 4
CCOC(=O)CN(C)C(C)c1nnc(-c2ccc(C)c(C)c2)o1 (configuration not stated)
→ 1, 0
O=c1c2c([nH]c(=S)n1C1CCCC1)-c1ccccc1CC21CCCC1
→ 1, 6
CN1C[C@@H](N)C[C@H]1C(=O)NCc1cccc(-n2cccn2)c1
→ -4, -9
O=C(Nc1nc(-c2ccc(Br)cc2)cs1)c1cnccn1
→ -6, -7
CCSc1nc2c(c(=O)n1-c1cc(C)cc(C)c1)SCC2
→ -8, -9
O=c1[nH]c(=O)c2ccc(C(F)(F)F)nc2[nH]1
→ -1, -4
CCCn1c(=S)[nH]c2cc(OC)c(OC)cc2c1=O
→ 17, 5
Cc1nc2n(n1)C(=O)C(C(c1ccc(Cl)cc1)N1CCC(O)CC1)S2 (configuration not stated)
→ -3, -5
c1ccc(-c2ncn(Cc3ccno3)c2-c2cccn2-c2ccccn2)cc1
→ 6, 1
CCOC(=O)CCC(=O)N(CCCOC)Cc1c(C)nn(-c2ccccc2)c1N1CCN(C)CC1
→ -1, 8
Cc1ccc(CNC(=O)c2c(C(F)(F)F)nn(C3CCCN(C)C3)c2C)cc1 (configuration not stated)
→ 11, 3
Cc1noc(C(C)N(C)Cc2cccc(C(=O)Nc3ncc(C)s3)c2)n1 (configuration not stated)
→ 2, 16
O=S(=O)(c1ccc(OC(F)(F)F)cc1)N1CCNCC1
→ -3, -3
COc1ccc(-c2nnc(SCC(=O)N/N=C\c3cccc(Cl)c3)n2-c2ccccc2)cc1OC
→ -5, 4
CC1CCCN(Cc2cccc(C(=O)Nc3cc(C4CC4)nn3C)c2)C1 (configuration not stated)
→ -3, -10
COCCN(Cc1ccco1)CC(O)COc1ccccc1C (configuration not stated)
→ 9, 21
N#CC1(C(=O)Nc2cccn(Cc3ccccc3)c2=O)CCCCC1
→ -20, -21
Cc1nc(Oc2ccc3c(c2)OCO3)c2c3c(sc2n1)CCCC3
→ -4&-2, -9&-3
CCC(NC(=O)c1cc(Cn2cnc3ccccc32)[nH]n1)c1cc(C)ccn1 (configuration not stated)
→ 10, -3
O=[N+]([O-])c1cccc(NN=C2CCCc3ccccc32)c1
→ 8, 5
CCCCN(CC)C(=O)C1CCN(S(=O)(=O)c2ccc3ccccc3c2)CC1
→ 3, -2
O=C1OCCCN1CCNc1ccc(-c2nc(Cc3ccccc3)no2)cn1
→ 2, 3
O=C(CCN(Cc1ccccc1)c1nc(-c2ccccc2)nc2ccccc12)Nc1cccc(C(F)(F)F)c1
→ 25, 16
COc1ccc(Br)c(Cn2c(C)c(C(=O)NCCC#N)sc2=O)c1
→ 11, 8
COc1cccc(Cn2cccc2CN(Cc2ccccc2)C(=O)CN(CC(C)C)S(=O)(=O)c2ccc(Br)cc2)c1
→ 3, 14
COc1ccccc1-n1c(-c2ccc(Cl)cc2)cc(C(=O)NCc2cccc(C(F)(F)F)c2)c1C
→ -13, -18
Cc1sc2nc(C(F)(F)F)nc(NCC3(N4CCOCC4)CCCCC3)c2c1C
→ -1, -4
CCOC(=O)c1c(-n2c(C)ccc2C)sc2c1CCC(C)C2 (configuration not stated)
→ 3, 1
COc1ccc(-n2nnnc2CNS(=O)(=O)c2ccc(C)cc2)cc1
→ 2, 1

As entered above.
Value of COC1(c2ccccc2)CCN(C(=O)c2ccccc2C2CCNC2)CC1 (configuration not stated) in NPYLR7 ag max-min: -14
Value of CCC(NC(=O)c1cc(Cn2cnc3ccccc32)[nH]n1)c1cc(C)ccn1 (configuration not stated) in NPYLR7 ag: 10
Value of COc1ccc(Br)c(Cn2c(C)c(C(=O)NCCC#N)sc2=O)c1 in NPYLR7 ag max-min: 8

Full records, quoted from the list.
Results for COc1ccccc1-n1c(-c2ccc(Cl)cc2)cc(C(=O)NCc2cccc(C(F)(F)F)c2)c1C : NPYLR7 ag = -13; NPYLR7 ag max-min = -18
Results for N#CC1(C(=O)Nc2cccn(Cc3ccccc3)c2=O)CCCCC1 : NPYLR7 ag = -20; NPYLR7 ag max-min = -21
Results for CCOC(=O)c1c(-n2c(C)ccc2C)sc2c1CCC(C)C2 (configuration not stated) : NPYLR7 ag = 3; NPYLR7 ag max-min = 1

The listing continues:
Value order – NPYLR7 ag, NPYLR7 ag max-min
COCCn1cc(C(=O)N2CCN(Cc3cc(C)ccc3C)CC2)c2nn(-c3ccccc3)c(=O)c-2c1
→ -3, -7
CC(=O)c1c(-c2ccccc2)c2cc([N+](=O)[O-])ccc2[nH]c1=O
→ -3, -3
CCOC(=O)c1cnc(N2CCN(CC)CC2)[nH]c1=O
→ 1, 1
O=C(NCCNc1ccc(Nc2ccncc2)nn1)Nc1ccccc1F
→ 9, -1
CC(C)c1noc(C(C)NC2CCN(C(=O)c3ccccc3)CC2)n1 (configuration not stated)
→ -2, -4
O=C(Nc1cccs1)N(CCO)CCOCC(F)(F)F
→ 11, 9
CC(C)Cc1cn(C2CCN(C3CCN(c4ccccc4)CC3)CC2)nn1
→ 0, 1
Cc1ccccc1C1=NOC(CN(Cc2ccccc2)CC(O)COc2ccccc2)C1 (configuration not stated)
→ -2, 4
O=C1CN(Cc2nc(-c3ccco3)no2)CCN1Cc1ccc2c(c1)OCO2
→ -5, -10
Cc1cc(N2C(=O)C3CC=CCC3C2=O)n[nH]1 (configuration not stated)
→ 12, 11
CCN(C(C)=O)C1CCN(C(=O)c2cnnn2-c2ccccc2)C1 (configuration not stated)
→ 20, 7
O=C(c1ccccc1F)N1CCSC1c1ccccc1OCc1ccccc1 (configuration not stated)
→ 21, 23
CC(NC(=O)c1coc(CN(Cc2ccc(Cl)cc2Cl)C(C)C)n1)c1ccccc1 (configuration not stated)
→ -15, -17
COc1cc(C(=O)Nc2c(C)nc3c(C)cccn3c2=O)cc(OC)c1OC
→ 4, 1
Cc1[nH]n(-c2ccccc2)c(=O)c1N=Nc1cccc(Cl)c1C
→ -1, -9
Cc1nn(-c2ccc(F)cc2)c(C)c1Cn1ccnc1C(C)C
→ -1, -4
Cc1csc(=O)n1CCC(=O)N1CCSC2(CCCCC2)C1
→ 0, -8
CC(C)N(Cc1nnc(-c2ccccc2)o1)S(=O)(=O)c1cccc(Cl)c1Cl
→ 2, -1
c1ccc(COC2CCN(CCOc3ccccc3)CC2)cc1
→ 0, 0
Cc1n[nH]c(C)c1NC(=O)Cc1ccc(Br)s1
→ -1, -3
COc1ccc(C(C)=O)cc1CN1C(=O)C(C)ON=C1c1ccc2[nH]ccc2c1 (configuration not stated)
→ 10, 7
CSc1nc2c(c(-c3ccc(O)cc3)c1C#N)CCCC2
→ -2&8, -2&8
Cc1cc(N2CCCC(Cn3ccnc3)C2)nc(N(C)C)n1 (configuration not stated)
→ 7, 3
CCc1ccccc1NC(=O)N(CC(=O)N(Cc1ccc(F)cc1)Cc1sccc1C)C1CC1
→ -12, -9
CN(Cc1cnn(-c2ccc(F)cc2)c1)Cc1nc(-c2ccc3c(c2)OCO3)no1
→ 5, 4
COc1cccc(C(=O)Oc2ccc(-c3nc4ccc(Br)cn4c3NC(C)(C)CC(C)(C)C)cc2OC)c1
→ 6, 6
COc1ccc(Nc2nc3cc(-c4ccccc4C)sc3c(=O)n2C)cc1OC
→ 9, 5
CCOC(=O)c1ccc(NS(=O)C23CC4CC(CC(C4)C2)C3)cc1 (configuration not stated)
→ -1, -1
CC(C)C(C)N(Cc1cccc(C(F)(F)F)c1)Cc1nc(C(=O)NCCN(C)C)co1 (configuration not stated)
→ 23, 30
COCC(=O)N1CCC(Oc2ccccc2C(=O)NCCc2ncccc2C)CC1
→ 3, 2

The last 2 records of the part before lead into the next.
Value order – NPYLR7 ag, NPYLR7 ag max-min
CC(C)C(C)N(Cc1cccc(C(F)(F)F)c1)Cc1nc(C(=O)NCCN(C)C)co1 (configuration not stated)
→ 23, 30
COCC(=O)N1CCC(Oc2ccccc2C(=O)NCCc2ncccc2C)CC1
→ 3, 2
COc1ccc2nc(-c3ccc(C)c(NC(=O)C(C)(C)C)c3)cn2n1
→ -12, -17
CCCCCC(=O)N1CCC2(CC1)SCCN2C(=O)c1cccs1
→ -7, 2
COc1ccc(-c2onc(C)c2C(=O)NCCCN(C)C)cc1
→ 17, 7
Cc1nn(C)c(C)c1CC(=O)N(C)Cc1ccccc1O
→ 1, 2
O=S(=O)(NC1CCc2cc(F)ccc21)c1ccc2c(c1)CCC2 (configuration not stated)
→ 3, 1
O=C(NC(CN1CCCC1)c1ccccc1)c1cn[nH]n1 (configuration not stated)
→ 1, -2
COc1ccc(-n2nc(C(=O)N(C)C3CCCCC3)c(=O)n(Cc3cccc(F)c3)c2=O)cc1
→ 2, 8
COc1cc(/C=C/C(=O)N2CCC(C(N)=O)C2)cc2c1OCCO2 (configuration not stated)
→ 4, 4
COc1ccc(-n2ccc(CNC(=O)N3CCCCCCC3)n2)cc1
→ -26&10, -24&8
O=C(CCc1ccncc1)N1CCOC(c2ccc(Cl)c(Cl)c2)C1 (configuration not stated)
→ -2, -5
CCCc1nc(N2CCCN(S(=O)(=O)c3ccc([N+](=O)[O-])cc3[N+](=O)[O-])CC2)c2c(C)nn(-c3ccccc3)c2n1
→ 13, 25
COc1ccc(N2CCN(c3cc(C(=O)NCc4cccc(Cl)c4)c4ccccc4n3)CC2)cc1
→ 18, 15
CCCCN(CC(=O)Nc1cc(-c2ccccc2)nn1-c1ccc(C)cc1C)C(=O)Nc1ccccc1OCC
→ -1, 3
CCONC(=O)c1cn(C)nc1-c1coc2ccccc12
→ 5, 2
N#CC1(c2ccccc2)CCN(C(=O)C2CCCCC2C(=O)NCCc2cccc(F)c2)CC1 (configuration not stated)
→ -20, -23

Overlap with the part before: 2 entries, followed by the next part.
Value order – NPYLR7 ag, NPYLR7 ag max-min
CCONC(=O)c1cn(C)nc1-c1coc2ccccc12
→ 5, 2
N#CC1(c2ccccc2)CCN(C(=O)C2CCCCC2C(=O)NCCc2cccc(F)c2)CC1 (configuration not stated)
→ -20, -23
CN(Cc1cccc(-n2cccn2)c1)Cc1nc(Cc2cccc(C(F)(F)F)c2)no1
→ 9, -2
CN(C(=O)OCc1ccccc1)C(CC(N)=O)C(=O)O (configuration not stated)
→ 3, 1
O=c1c2ccc(Cl)cc2nc(-c2ccc(Cl)c(F)c2)n1Cc1ccccc1
→ 31, 18
COc1ccc(CC(=O)N(CC(=O)N2c3ccccc3-n3cccc3C2c2ccccc2)C(C)C)cc1 (configuration not stated)
→ 1, 17
Cc1c(NCc2cccnc2)cccc1C(=O)NCCN1CCCC(O)C1 (configuration not stated)
→ 5, 5
CC(C)c1nc(C2CC(=O)Nc3ccc(F)cc32)n(-c2ccccn2)n1 (configuration not stated)
→ 2, 2
FC(F)(F)c1ccc(Cl)c(NC(=S)NN=C2CCSC2)c1
→ 8, 6
CCCC1CCC(c2ccc(-c3nc(-c4ccncc4)no3)cc2)CC1 (configuration not stated)
→ -14, -24
COCCN(CC1CCN(Cc2ccccc2OC)CC1)C(=O)CSC
→ 5, 5
N[C@@H]1CC[C@@H](NC(=O)c2ncccc2O)C1
→ 9, 7
CCN1C(c2cccs2)=CS/C1=C(\C#N)c1nnc2n1CCCCC2
→ -5, -6
O=C(NC1(C(F)(F)F)NC(=O)N(Cc2ccccc2)C1=O)c1ccccc1 (configuration not stated)
→ 10, 3
O=C(NCCOc1ccccc1)c1cc2n(n1)CCN(Cc1c(Cl)cccc1Cl)C2=O
→ 15, 4
O=C(CCCCSc1nnc(Cc2ccccc2)n1-c1ccc(Cl)c(Cl)c1)N1CCN(c2ccccc2F)CC1
→ -2, 12
Cn1cc(C(=O)O)c2nn(-c3ccccc3)c(=O)c-2c1
→ -6, -8
COc1cc(OC)cc(C(=O)N2CCSC23CCN(C(=O)Cc2ccccc2)CC3)c1
→ -4, 6
O=C(NCCC(=O)N1CCC(C(=O)N2CCCCC2)CC1)Nc1ccc(I)cc1
→ 0, 10
CC(=O)NC(C)C(=O)N(C(C)C)C1CC1 (configuration not stated)
→ 9, 3
Cc1cc(C)n(Cc2c(Cl)cccc2Cl)c(=O)n1
→ -6, -13
CN(C)S(=O)(=O)c1cc(NC(=S)NC(=O)c2ccco2)ccc1Cl
→ -4, -6
O=C(ON=C1CCCC1)c1ccc(Br)cc1
→ 2, 4
COc1cccc(C(C2Sc3nc(-c4ccco4)nn3C2=O)N2CCOCC2)c1 (configuration not stated)
→ 0, -1
C#CCN(CC=C)C(=O)C1CCC(=O)N(CC2CCCCC2)C1 (configuration not stated)
→ 3, -1
CC(C)[C@@H]1CC[C@@H](C)C[C@H]1OC(=O)c1ccccc1
→ -2, -10
CC(=O)N(C[C@H]1O[C@@H](CC(=O)NC(C)C)[C@H](O)[C@@H]1O)C[C@H]1O[C@@H](CC(=O)NC(C)C)[C@H](O)[C@@H]1O
→ -11, -14

A portion of the library (hit frequency here may not be typical).
